Bioassay records (PubChem)
SARS PLpro yeast = blocks SARS-CoV papain-like protease in a yeast assay; hit rate 0.19% among 330,000; S. cerevisiae expressing SARS-CoV PLpro, growth rescue; control for the full effect not named in the record; Potency, µM (top dose mostly 32.9 µM), without a hit: at the top dose activity, positive = growth rescue; note: 0% is about no effect; nearly all actives have a fitted effect of over 55% in size; growth read by luminescence after 48 h
MARV entry inh = inhibitors of Marburg virus binding or cell entry. hit rate 1.8% among 300,000. AID 540276. Potency, µM (series often up to 37.8 µM), without a hit: top-dose activity change, negative = inhibition, most hits filed as inhibitors. Marburg virus pseudotyped entry inhibition, cell reporter; control for the full effect not named in the record; about a third of the inactives were read at about 46 µM; active = well fitted inhibition curve with a large enough effect; inconclusive = small, poorly fitted or top-dose-only effect, or effect the other way; inactive = flat fitted curve, though single readings scatter; tested in HEK293 cells; about a fifth of its hits are not listed in these tables; note: % is set by controls: 0 for no effect and ±100 for the full control effect; luciferase read-out
Cruzain Triton = cruzain (T. cruzi) inhibition with detergent. P25779. purified cruzain, Z-FR-AMC fluorescence, 0.01% Triton. Potency, µM, inactives show max response, negative = inhibition, actives largely listed as inhibitors. hit rate 0.43% among 200,000. AID 1478; active = well fitted curve in the direction sought with a large enough effect; inconclusive = small, poorly fitted or top-dose-only effect, or another doubt; inactive = no such curve, though single readings can be large; an effect the other way counts as inactive or inconclusive;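 note: plate controls were neutral wells for no effect and buffer without enzyme for full effect; nearly all actives have a fitted effect of over 40% in size; top concentration of the series not given in the record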
Target sequence (P25779 123-467 limits assumed): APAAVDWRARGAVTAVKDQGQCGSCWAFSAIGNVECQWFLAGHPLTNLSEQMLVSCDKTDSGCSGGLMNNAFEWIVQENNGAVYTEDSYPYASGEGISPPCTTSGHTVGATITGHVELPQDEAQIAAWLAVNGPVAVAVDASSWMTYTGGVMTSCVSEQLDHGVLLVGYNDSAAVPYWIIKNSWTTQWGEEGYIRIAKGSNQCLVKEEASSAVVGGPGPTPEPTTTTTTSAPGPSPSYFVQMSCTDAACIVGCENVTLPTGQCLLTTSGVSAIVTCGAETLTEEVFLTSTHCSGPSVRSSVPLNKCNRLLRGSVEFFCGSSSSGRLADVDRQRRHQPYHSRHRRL
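Sodium acetate buffer (100 mM, pH 5.5) containing 5 mM DTT and 0.01% Triton X-100 hosted 1.5 nM cruzain and test compound for 15 min at room temperature. Cleavage of 2 uM Z-FR-AMC was then tracked by fluorescence.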
NS1 function inh = blocks influenza NS1 protein function; S. cerevisiae slowed by influenza A NS1, growth recovery by OD600; Potency, µM (series often up to 46.1 µM), inactives show at the highest dose activity, positive = more growth; hit rate 0.4% among 270,000; note: actives are rising curves; nearly all actives have a fitted effect of over 50% in size
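In this qHTS, NS1 from influenza A is expressed in budding yeast, where it slows growth. Cells are switched from glucose to 2% galactose medium (pH 6.0, -URA), treated with compound, and growth recovery is read at OD600.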
RE007 growth inh = less growth of the S. pombe RE007 Vpr strain; S. pombe RE007 Vpr strain, BacTiter-Glo ATP luminescence, 24 h; control for the full effect not named in the record; Potency, µM (titrated, usually from 92.2 µM), inactives show at the top dose activity change, negative = less growth; hit rate 0.21% among 360,000; AID 651644; active = well fitted falling curve with a large enough effect; inconclusive = small, poorly fitted or top-dose-only effect; inactive = no such curve, though single readings can be large or run the other way;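 note: % is set by controls: 0 for no effect and ±100 for the full control effect; nearly all actives have a fitted effect of over 50% in size; the assay follows cell death caused by Vpr and the record does not say whether a fall means rescue or toxicity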
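Fission yeast RE007 carrying one integrated HIV-1 vpr copy, seeded at OD 0.01 in PMG+AL medium with 23 nL pinned compound. Grown 24 h at 30 degrees; viability read by BacTiter-Glo luminescence after 5 min.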
Cruzain noTriton = cruzain (T. cruzi) inhibition without detergent; P25779; purified cruzain, Z-FR-AMC fluorescence, no detergent; Potency, µM, for the others: max response, negative = inhibition, hits mostly inhibitors; hit rate 2.3% among 200,000; active = well fitted curve in the direction sought with a large enough effect; inconclusive = small, poorly fitted or top-dose-only effect, or another doubt; inactive = no such curve, though single readings can be large; an effect the other way counts as inactive or inconclusive;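 note: plate controls were enzyme without inhibitor for no effect and buffer without enzyme for full effect; nearly all actives have a fitted effect of over 40% in size; top concentration of the series not given in the record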
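Purified cruzain at 1.5 nM, pre-incubated 15 min with compound at room temperature in 100 mM sodium acetate pH 5.5, 5 mM DTT, 0.00005% Triton X-100. Reaction started with 2 uM Z-FR-AMC; AMC fluorescence increase over 60 s gives rate.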
StopGo reporter = FMDV 2A StopGo reporter, luciferase signal; human cells with a luciferase reporter of 2A StopGo recoding; control for the full effect not named in the record; Potency, µM (highest dose often 57.9 µM), for inactives: at the top dose signal change, negative = less light; hit rate 1.2% among 410,000; AID 1159524; active = well fitted falling curve with a large enough effect; inconclusive = small, poorly fitted or top-dose-only effect; inactive = no such curve, though single readings can be large or run the other way; tested in HEK293T cells; note: % is set by controls: 0 for no effect and ±100 for the full control effect; nearly all actives have a fitted effect of over 45% in size; luciferase light after 4 h
Lassa entry inh = blocks Lassa virus binding to or entry into cells. Potency, µM (highest dose often 37.9 µM), inactives show at the highest dose activity change, negative = inhibition, usual class: inhibitors. Lassa virus pseudotype entry inhibition, cell reporter; control for the full effect not named in the record. AID 540256. hit rate 1.2% among 300,000; active means well fitted inhibition curve with a large enough effect; inconclusive means small, poorly fitted or top-dose-only effect, or effect the other way; inactive means flat fitted curve, though single readings scatter; tested in HEK293 cells; note: % is set by controls: 0 for no effect and ±100 for the full control effect; nearly all actives have a fitted effect of over 50% in size; luciferase read-out
An asterisk follows results filed as active; ? = inconclusive; . = not tested or not shown; & = joins results of further samples; [ ] = another dose, or the depositor's remark. Unless noted, calls come from the whole dose curve; as a rule, active means well fitted rising curve with a large enough effect; inconclusive means small, poorly fitted or top-dose-only effect; inactive means no such curve, though single readings can be large or run the other way. Potency is the fitted concentration of half-maximal effect.

SMILES	SARS PLpro yeast	MARV entry inh	Cruzain Triton	NS1 function inh	RE007 growth inh	Cruzain noTriton	StopGo reporter	Lassa entry inh
COc1ccc(NC(=S)Nc2ccc(OC(F)F)cc2)cn1	-4%	4%[46.1 µM]	.	.	?	.	35%[activator]	3%
Cc1ccc(F)cc1CNC(=O)C1CCC(=O)N(CC2CCCCC2)C1 (stereo not drawn)	-2%	.	.	-12%	-2%	.	1%	.
Cc1ccc(-c2cn3c(n2)sc2cc(C(=O)NCCCN4CCCCCC4)ccc23)cc1	.	.	-0.5%	.	.	-2%	13%	14%[46.1 µM]
O=C(Cc1coc2ccc3ccccc3c12)Nc1nnc(C2CC2)s1	11%	?	-3.9%	6%	-6%	-28%	-18%	2.5µM*
CC1Cc2ccccc2N1C(=O)COC(=O)c1cccnc1Cl (stereo not drawn)	2%	-4%	1.0%	11%	1%	-6%	7%	-2%
O=C(COc1ccc(F)cc1Cl)Nc1ccc(S(=O)(=O)Nc2nccs2)cc1	3%	2%	.	.	?	.	49%[activator]	5%[46.1 µM]
Cc1ccc(N(CCC#N)C(=O)COC(=O)c2nc3nc(C)cc(C)n3n2)cc1	18%	11%	.	.	-5%	.	-13%	-3%
Cc1ccsc1C1CC(=O)NC2=C1C(=O)CC(C)(C)C2 (stereo not drawn)	4%	2%[46.1 µM]	4.8%	-6%	-21%	11%	-26%	5%
CCOC(=O)C1=C(C)NC2=C(C(=O)C(C(=O)OCC)C(c3cccc(OC)c3)C2)C1c1ccccn1 (stereo not drawn)	4%	1%	0.1%	-10%	0%	1%	0%	-17%
Clc1ccc(CN(CC2CCCO2)C(c2cccs2)c2nnnn2C2CCCC2)cc1 (stereo not drawn)	-26%	?	6.0%	18%	-2%	-1%	-21%	?
COc1ccccc1CNC(=O)C1CCCN(S(=O)(=O)c2cccc3nsnc23)C1 (stereo not drawn)	3%	-12%[46.1 µM]	.	19%	-7%	.	-24%	-29%[46.1 µM]
O=C(O)c1cccc2c1C(=O)N(C1CCCC1)C2	-2%	.	.	-2%	7%	.	-10%	.
COc1ccc(/C=C(\C#N)c2c[nH]c3ccccc23)cc1	-13%	?	.	-80%	-14%	.	26%	?
Cc1ccc(N(C(=O)c2csnn2)C(C(=O)NC2CCCC2)c2cccnc2)cc1 (stereo not drawn)	-1%	-5%[46.1 µM]	.	-6%	6%	.	0%	-12%[46.1 µM]
COc1ccc(Cl)cc1NC(=O)N1CCN(S(=O)(=O)c2ccc3c(ccn3C)c2)CC1	.	.	-2.3%	.	.	?	?	0%[46.1 µM]
O=C(NCCN1CCOCC1)c1cc2n(n1)C(C(F)(F)F)CC(c1ccc(F)cc1)N2 (stereo not drawn)	3%	28%	-0.8%	1%	7%	6%	-11%	2%
COC(=O)c1ccccc1NC(=O)CSc1n[nH]c(CC(C)C)n1	2%	-4%	5.3%&-2.7%	-5%	3%	3%&-12%	0%&9%	-5%
COc1ccc(C(=O)CCC(=O)N2CCN(c3ccccc3)CC2)cc1	6%	.	.	3%	-13%	.	-14%	.
COc1ccc(-c2noc(CSc3nc(N)cc(=O)[nH]3)n2)cc1	-3%	.	-1.0%	5%	-3%	8%	-36%&0%	-5%[46.1 µM]
COc1cccc(CN(C)S(=O)(=O)c2ccccc2Br)c1	21%	?	.	.	1%	.	5%	.
O=C(NCCc1c[nH]c2ccccc12)/C(=C/c1cccnc1)NC(=O)c1ccccc1	-1%	25%[46.1 µM]	.	.	4%	.	-18%	-14%
Nc1ccc2c(c1)sc1ccccc12	-22%	?	-6.9%	?	-4%	-11%	47%[activator]	?
CCOc1ccc(NC(=O)Cn2c(=O)n(CC(=O)NCc3ccccc3Cl)c(=O)c3sccc32)cc1	.	21%[46.1 µM]	-1.9%	.	.	3%	13%	?
Cc1cccc(N2CCN(C(=O)CN3C(=O)COc4ccc(S(=O)(=O)N5CCC(C)CC5)cc43)CC2C)c1 (stereo not drawn)	.	?	-7.0%	.	.	?	?	-14%[46.1 µM]
CCCCSc1nc2ccccc2n1CC(=O)O	34%	17%	-0.4%	3%	-7%	4%	5%	29%
(list continues)
SMILES	SARS PLpro yeast	MARV entry inh	Cruzain Triton	NS1 function inh	RE007 growth inh	Cruzain noTriton	StopGo reporter	Lassa entry inh
CN(Cc1ccc(F)cc1)C(=O)CCc1nnc(-c2ccccc2)o1	0%	?	.	-6%	-2%	.	44%[activator]	2%[46.1 µM]
O=C(Nc1ccc(F)cc1)c1ccc(Cn2nc(N3CCN(c4ccccc4)CC3)ccc2=O)o1	.	.	-7.6%	.	.	?	?	?
CCOc1ccc2[nH]c3c(NCCN(CC)CC)ncnc3c2c1	-5%	?	.	0%	-12%	.	-3%	-26%
Cc1c(NC(=O)/C=C/c2ccc(S(=O)(=O)N3CCOCC3)cc2)c(=O)n(-c2ccccc2)n1C	-2%	0%[46.1 µM]	.	.	-13%	.	4%	5%
Cc1ccc(-c2nnc(SCC(=O)c3ccc(Cl)cc3)n2-c2ccccc2)cc1	.	.	1.8%	.	.	-10%	0%	-12%[46.1 µM]
Cc1ccc(C(=O)N(CC(C)C)c2nc3ccccc3s2)o1	0%	-2%	.	-7%	-6%	.	-15%	?
C(=C\c1ccccc1)/CNCC1CCCO1 (stereo not drawn)	-2%	-2%[46.1 µM]	.	.	12%	.	-9%	-12%[46.1 µM]
COc1ccc(Cl)cc1NC(=S)N(CCN1CCOCC1)C1CCN(C(C)=O)CC1	0%	19%[46.1 µM]	.	.	5%	.	-3%	-3%[46.1 µM]
COc1ccc(NC(=O)CSc2ncn(-c3ccccc3)n2)cc1Cl	-13%	1%	-3.6%	-9%	-8%	-2%	?	0%
CC(=O)c1cc(-c2ccccc2)n(CC(=O)NCCc2ccc(C)cc2)c1C	.	.	-1.0%	.	.	-13%	-19%	-7%[46.1 µM]
CCOP(=O)(OCC)C(NC(=O)c1ccc(C)cc1)=C(Cl)Cl	5%	27%[46.1 µM]	5.1%	7%	2%	-6%	-16%	2%
O=c1ccc(/C=C/c2ccccc2)nn1Cc1ccc(F)cc1	-9%	0%[46.1 µM]	.	.	25%	.	?	?
O=c1[nH]c(C2CCCN(S(=O)(=O)Cc3ccccc3)C2)nc2c1nnn2Cc1cccc(Cl)c1 (stereo not drawn)	2%	-12%[46.1 µM]	.	2%	1%	.	5%	?
CNC(=O)c1csc(-c2cccs2)n1	-1%	6%	.	.	-10%	.	48%[activator]	12%
Cc1cc(NC(=O)CSc2nnc(C3CC3)n2Cc2ccccc2)no1	-6%	13%	4.2%	-5%	-4%	-11%	-26%	-2%
CNC(=S)NNC(=O)c1sc2cc(C(F)(F)F)cnc2c1-c1ccccn1	6%	7%[46.1 µM]	.	.	-10%	.	-5%	21%
CNC(=O)NC(=O)CSc1nc2ccccc2n1CCOC	2%	-10%	1.3%	3%	16%	5%	13%	-22%
COc1ccc(C)cc1S(=O)(=O)N1CCN(C(=O)c2ncoc2-c2cccc(C)c2)CC1	4%	-4%[46.1 µM]	.	-1%	-17%	.	-22%	.
CCOC(=O)Nc1nnc(-c2ccccc2OC)s1	3%	18%	-1.9%	-14%	1%	5%	33%[activator]	-2%
CC(C)NC(=O)C1CCN(C2CCN(C(=O)c3scc4c3CCCC4)CC2)CC1	0%	.	.	1%	12%	.	0%	.
CSc1ccc(/C=C(/NC(=O)c2ccco2)C(=O)NCc2ccco2)cc1	-3%	?	.	11%	1%	.	16%	-14%
c1ccc(CNn2nnnc2-c2ccccc2)cc1	.	9%	3.2%	-11%	-8%	3%	0%	-5%
CN1CCc2nc(SCc3cccc(Br)c3)c(C#N)cc2C1	1%	-8%	.	1%	-10%	.	-2%	-33%
COc1ccc(Cl)cc1NS(=O)(=O)c1ccc2c(c1)NC(=O)CC(=O)N2	.	1%[46.1 µM]	-1.3%	.	.	1%	-2%	-11%[46.1 µM]
COc1ccccc1CNS(=O)(=O)c1ccc(-c2cc(C)no2)cc1	-6%	.	.	-6%	21%	.	?	.
Other results follow.
SMILES	SARS PLpro yeast	MARV entry inh	Cruzain Triton	NS1 function inh	RE007 growth inh	Cruzain noTriton	StopGo reporter	Lassa entry inh
CCOc1ccc(C(=O)NC2CCN(CC(=O)NCc3cccs3)CC2)cc1	-2%	13%[46.1 µM]	.	-1%	15%	.	7%	0%
O=C(OCCN1CCCCC1)c1ccc(Cl)cc1	2%[6.58 µM]	1%	4.5%	-3%	-15%	-19%	6%	3%
COc1ccc(-c2nc(NC(C)=O)sc2-c2ccc(OC)cc2)cc1	2%	-3%[46.1 µM]	.	9%	6%	.	-20%	1%
COCCn1c(SCC(=O)Nc2ccccc2OC)nnc1-c1ccco1	0%	-10%[46.1 µM]	.	1%	2%	.	14%	-11%
COC(=O)C(Cc1ccccc1)NC(=O)CC(C)CC(=O)Nc1ccc(C)cc1 (stereo not drawn)	7%	.	.	-4%	-15%	.	-12%	.
O=C(CSCc1ccccc1)Nc1nccs1	-4%	10%	1.5%	-8%	0%	7%	-2%	4%
CC(C)CN(CCCNC(=O)c1cc(=O)[nH]c2ccc(S(=O)(=O)N3CCCC3)cc12)CC(C)C	.	.	0.6%	.	.	-9%	-14%	9%[46.1 µM]
CCOc1ccc(-c2nc(CSc3nnc(N)s3)cs2)cc1OC	-1%	?	-1.9%	-4%	5%	-1%	-28%	-20%
CC(C)COc1ccc(CNC(=S)N/N=C/c2ccc([N+](=O)[O-])cc2)cc1	-4%	?	-3.8%	9%	-1%	?	-9%	?
CCOC(=O)CNC(=O)N1CCCC(CNS(=O)(=O)Cc2ccccc2)C1 (stereo not drawn)	0%	.	.	-2%	3%	.	-2%	.
CCOC(=O)c1c(NC(=O)COC)sc2c1CCCC2	-7%	-1%	2.1%	-16%	-15%	10%	-11%	-6%
COC(=O)Nc1c(-c2ccccc2)nc2ccccn12	3%	12%	-2.4%	-8%	-5%	-7%	7%	1%
COc1cccc(C2C=C(c3ccccc3)Nc3c(C(=O)Nc4ccccc4)cnn32)c1OC (stereo not drawn)	.	.	-2.9%	.	.	-24%	-15%	-22%[46.1 µM]

Not a hit list (roughly 4.6% active in at least one column).
